KCNQ2 enhance: enhances the rat KCNQ2 potassium channel; O88943; CHO-K1 KCNQ2, FluxOR thallium flux fluorescence; active compounds read high; B-score at 10 µM; hit rate 0.54% among 310,000;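 active = fluorescence ratio B-score at least 3 SD of library B-scores, with initial fluorescence B-score within 3 SD, cut at about 5.3 in these data; same plate scores as AID 2156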;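 note: B-score of peak minus minimum over baseline fluorescence ratio after K+ and Tl+ stimulus; positive B-score means potentiation of KCNQ2 with more thallium influx and brighter signal; only the inactives scoring about 0 or higher are listed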
Target sequence (O88943 whole entry, looked up): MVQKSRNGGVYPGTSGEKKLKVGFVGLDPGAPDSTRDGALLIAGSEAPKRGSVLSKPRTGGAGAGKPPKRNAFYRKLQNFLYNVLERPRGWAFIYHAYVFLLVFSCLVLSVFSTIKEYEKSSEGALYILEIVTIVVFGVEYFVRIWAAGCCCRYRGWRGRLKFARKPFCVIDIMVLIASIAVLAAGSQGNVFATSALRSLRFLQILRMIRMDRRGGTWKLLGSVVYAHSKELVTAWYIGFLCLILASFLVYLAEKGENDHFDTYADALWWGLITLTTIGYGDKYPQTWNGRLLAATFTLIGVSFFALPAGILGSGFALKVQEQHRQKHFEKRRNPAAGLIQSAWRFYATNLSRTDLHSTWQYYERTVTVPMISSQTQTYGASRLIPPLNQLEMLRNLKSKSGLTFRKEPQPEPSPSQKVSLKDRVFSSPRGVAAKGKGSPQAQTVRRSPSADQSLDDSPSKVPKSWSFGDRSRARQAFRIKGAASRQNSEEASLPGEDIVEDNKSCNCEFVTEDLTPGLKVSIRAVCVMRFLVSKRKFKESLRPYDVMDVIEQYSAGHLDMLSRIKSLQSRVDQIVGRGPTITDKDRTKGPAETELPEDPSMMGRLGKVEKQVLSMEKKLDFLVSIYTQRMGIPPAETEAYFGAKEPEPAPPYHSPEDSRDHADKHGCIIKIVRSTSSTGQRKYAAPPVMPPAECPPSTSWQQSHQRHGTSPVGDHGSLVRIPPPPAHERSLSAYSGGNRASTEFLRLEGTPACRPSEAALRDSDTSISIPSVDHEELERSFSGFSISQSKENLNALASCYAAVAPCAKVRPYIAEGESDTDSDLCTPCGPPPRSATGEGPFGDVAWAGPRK
KCNQ2 enhance baseline: also measured in KCNQ2 enhance; calls as there; B-score; compound at 10 µM; measured here: initial fluorescence intensity artifact check;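 brightness before thallium and not channel activity; 0 = typical well and far values either way flag optical interference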
* marks the source's active call; other numbers are inactive results.

smiles,KCNQ2 enhance,KCNQ2 enhance baseline
CCCCC(=NCCO)C1=C(O)C(C(=O)OC)C(C)(C)CC1=O (stereo unspecified),1.6,0.88
Cc1ccc(CCN2CC(C(=O)NCCCN(C)Cc3ccccc3)CC2=O)cc1 (stereo unspecified),0.04,1.8
Cc1cccc(C(=O)N2CCc3ccccc3C2)c1[N+](=O)[O-],1.5,-0.04
CC1(C)CC(=O)C2=C(C1)NC(=O)CC2c1ccccc1F (stereo unspecified),0.52,-2.2
COc1ccc(CCn2c(=N)c(C(=O)NCc3ccco3)cc3c(=O)n4ccccc4nc32)cc1,0.38,-0.14
Cc1ccc(-c2nn(-c3ccccc3)cc2C(=O)NCCCN2CCCC2=O)cc1,0.25,1.9
COc1ccc(/C=C/c2nnc(NC(=O)COc3ccccc3)s2)cc1,0.02,-0.7
O=C(O)c1ccccc1-c1ccccc1C(=O)NCCc1ccccc1,3.6,-1.8

Continued.
smiles,KCNQ2 enhance,KCNQ2 enhance baseline
CCCCc1ccc(NC(=S)NCC2CCCO2)cc1 (stereo unspecified),0.65,-0.81
Cn1c(CN2CCCC2)nc2cc(NC(=O)COc3ccccc3)ccc21,1,-2.7
O=C1OC(c2cccc([N+](=O)[O-])c2)C2(CCCC2)C(=O)C12CCCCC2 (stereo unspecified),3.9,0.46
Cc1cc(C)cc(N(CC(=O)NCC2CCCO2)S(=O)(=O)c2c(C)noc2C)c1 (stereo unspecified),0.69,1.1
CN1C(=O)C(CC(=O)Nc2ccccc2)S/C1=N/c1nccs1 (stereo unspecified),0.02,-0.03
Cc1nnc2ccc(N3CCN(c4cccc(C(F)(F)F)c4)CC3)nn12,0.63,-2.7
CCn1nc(C)cc1C(=O)N1CCCC(C(=O)c2ccc(OC)cc2C)C1 (stereo unspecified),0.81,2.8
COc1ccc(N(CC(=O)NC(C)(C)C)C(=O)CCC(=O)Nc2nccs2)cc1,0.07,0.12

New compounds follow.
smiles,KCNQ2 enhance,KCNQ2 enhance baseline
CCN1C(=O)/C(=c2\o/c(=C3\C=Cc4ccccc4N3CC)c(=O)n2CC)SC1=S,0.62,-1.4
O=C(NCCc1ccc(Cl)cc1)C1CCC(=O)N1Cc1ccccc1Cl (stereo unspecified),0.14,-1.2
O=C(/C=C/Nc1ccc(F)cc1)c1ccc(Br)cc1,0.06,-0.25
COc1ccc(C(CC(=O)N2CCOCC2)c2c(OC)cc(OC)c3ccc(=O)oc23)cc1 (stereo unspecified),0.39,2.1
COc1cccc(-c2c(C(=O)N/N=C/c3ccsc3)nnn2-c2nonc2N)c1,0.57,-0.02
C=CCOc1ccc(CNc2nn[nH]n2)cc1OC,0.08,1.5
Cc1ccc(C(=O)N/C(=C\c2ccc(Cl)cc2)C(=O)NCCCN2CCOCC2)cc1,0.85,-0.56
CCCCNC(=O)c1onc(CSc2ccc(C(C)C)cc2)c1C(=O)O,0.03,0.99

Next section.
smiles,KCNQ2 enhance,KCNQ2 enhance baseline
COc1ccc(/C=C2\SC(=S)N(CC(=O)OCC(=O)Nc3cc(Cl)cc(Cl)c3)C2=O)cc1,0.72,0.04
O=C(O)C1CC(=O)N(c2ccc(OCc3ccc(Cl)cc3Cl)cc2)C1 (stereo unspecified),0.33,0.97
CCN(CC(=O)Nc1c(F)cccc1F)C(=O)c1ccc2c(c1)OCCO2,2.8,-1.2
CCOC(=O)c1ccc(N2C(=O)C(O)=C(C(C)=O)C2c2ccc([N+](=O)[O-])cc2)cc1 (stereo unspecified),1.7,-0.18
CSc1cc(C)[nH]c(=O)n1,0.81,-0.94
COc1nc(C)nc2c1ccc1ccccc12,0.94,-0.07
COc1ccccc1NC(=O)c1ccc(N2CC3CC(C2)c2cccc(=O)n2C3)c(NC(=O)c2cccnc2)c1 (stereo unspecified),0.38,0.01
COCCn1c(SCC(=O)NCc2ccco2)nnc1C(C)C,0.69,0.3

Following part
smiles,KCNQ2 enhance,KCNQ2 enhance baseline
COCCCNc1oc(-c2ccccc2OC)nc1C#N,0.1,-0.32
COC(=O)c1cc(C(=O)OCC(=O)N2c3ccccc3NC(=O)C2(C)C)cc([N+](=O)[O-])c1,0.89,0.01
O=C(COc1cccc(NC(=O)c2ccco2)c1)c1ccc(F)cc1,1.1,1.1
Cc1cccc(C(=O)OC2CCCN(C)C2)c1C (stereo unspecified),0.01,0.56
Cc1ccc(C(=O)COC(=O)CNC(=O)CN2C(=O)c3ccccc3C2=O)cc1,1.7,-0.19
COCCCn1c(=O)c2ccccc2n(CC(=O)NC2CCCC2)c1=O,0.4,-0.16
NC(=O)CSc1ncc(-c2ccc([N+](=O)[O-])cc2)[nH]1,0.56,0.03
Cc1cc(C(=O)N(C)Cc2ccc(Br)cc2)no1,0.39,-1.6

New compounds follow
smiles,KCNQ2 enhance,KCNQ2 enhance baseline
Cc1ccc(NC(=O)CN2CCC(NC(=O)C3CCCCC3)CC2)c(Br)c1,1.1,0.29
CCN(CC)C(=O)COc1ccc(S(=O)(=O)N2CCOCC2)cc1,0.1,0.04
CC(=O)Nc1ccc(N=C(C2=C(O)c3ccccc3C2=O)c2ccccc2)cc1,0.26,-2.6
COC(=O)c1sccc1NC(=O)CSc1ccccc1NS(=O)(=O)c1ccccc1Cl,0.48,0.03
NNC(=O)c1cnn(-c2ccccc2)c1-n1cccc1,1.1,-1.6
NC1(C(=O)O)CC1,0.27,1.1
O=C(CSc1nnc(-c2ccncc2)o1)NC1CCCCC1,0.01,0.2
O=C(Nc1cccc([N+](=O)[O-])c1)c1ccc2snnc2c1,1.3,0.78

Next section:
smiles,KCNQ2 enhance,KCNQ2 enhance baseline
CCOC(=O)c1c(NC(=O)COc2cccc3c2CCN(CC)C3=O)sc2c1CCC2,0.17,0.33
O=C(Nc1cccc(F)c1)c1ccc(S(=O)(=O)N2CCCCC2)cc1,0.75,1.2
Cc1nc2sc3c(c2c(=O)n1NC(=O)CCBr)CCCC3,6.6*,0.8*
O=C(CSc1n[nH]c(-c2cccs2)n1)N1CCN(S(=O)(=O)c2ccc3ccccc3c2)CC1,0.13,0.35
O=C(c1cccc(Cl)c1)N1CCN(c2ccccn2)CC1,0.03,-0.91
O=C(COC(=O)c1ccccc1Nc1ccccc1)NCc1ccco1,0.5,1.4
Cc1[nH]c2ccc(C(=O)N3CCCC3)cc2c1C,0.04,-2.1
O=C1N=C(N2CCCCC2)SC1=C1CCCCC1,0.11,-1.7

(list continues)
smiles,KCNQ2 enhance,KCNQ2 enhance baseline
CCOc1ccccc1C(=O)Oc1cc(C)[nH]c(=O)c1[N+](=O)[O-],1.2,0.97
C=CCNC(=S)N1CCN(CCNC2=CC(=O)CC(C)(C)C2)CC1,0.47,-1.4
Cc1nc2ccc(CN(C)c3ccc(C(=O)N[C@@H](CCC(=O)O)C(=O)O)s3)cc2c(=O)[nH]1,0.76,-1.4
Cc1nc(C)c(/C(O)=C/c2nc3ccccc3oc2=O)s1,0.78,-0.39
O=C(O)CCCn1cc(NC(=O)COc2ccccc2)cn1,0.46,2.8
O=C(CCc1ccccc1)NC(=S)Nc1ccc(S(=O)(=O)N2CCOCC2)cc1,0.45,-0.9
CC1CCN(S(=O)(=O)c2ccc3c(c2)c(=O)c(C(=O)N2CCOCC2)cn3C)CC1,0.45,0.03
CSc1ccccc1NC(=O)COc1ccc(Cl)cc1Cl,0.01,0.36

The listing continues.
smiles,KCNQ2 enhance,KCNQ2 enhance baseline
CCN(CC)S(=O)(=O)c1ccc(C)c(NC(=O)Cn2c(=O)cnc3ccccc32)c1,0.35,0.11
COc1cccc(/C=N/N2CCN(C)CC2)c1,0.01,-0.03
O=C(COC(=O)CCc1ccccc1)Nc1ccc(F)cc1Cl,0.48,-3
CCOC(=O)C1=C(C)N(CCCCCC(=O)O)C(=O)NC1c1ccc([N+](=O)[O-])cc1 (stereo unspecified),0.92,-0.24
CCN(CC)C(=O)c1ccc(S(=O)(=O)N2CCC(c3nc4ccccc4s3)CC2)cc1,1.9,-2.3
COCCNC(=O)COc1ncnc2scc(-c3ccc(F)cc3)c12,1.4,-0.12
CCNc1c(NS(=O)(=O)c2ccc(OC)cc2)c(=O)oc2ccccc12,1.3,-1.3
COC(=O)C1=C(C)N(C)C(=O)NC1c1cccc2ccccc12 (stereo unspecified),0.92,-0.68

Additional records follow:
smiles,KCNQ2 enhance,KCNQ2 enhance baseline
O=C(CSc1nnc(Cc2ccccc2)o1)c1ccc2c(c1)OCO2,0.8,-0.83
Cc1nn(Cc2ccccc2)c(Cl)c1C(=O)OCC(=O)NC(=O)NC12CC3CC(CC(C3)C1)C2,1.7,0.04
O=C(CSc1ccc(Cl)cc1)NNC(=O)c1ccco1,0.67,0.71
Cn1c(=O)[nH]c(=O)c2c1nc(N/N=C/c1ccncc1)n2Cc1ccc(Cl)cc1,0.54,-0.12
O=C(NCCc1ccccc1)c1ccc(Cl)c(S(=O)(=O)N2CCOCC2)c1,1.4,0.92
CC(=O)c1cccc(N(C(=O)CNC(=O)c2ccco2)C(C(=O)NC2CCCC2)c2ccco2)c1 (stereo unspecified),2.6,-0.24
COc1ccccc1NC(=O)Cn1c(=O)c(N(C)C)c(N)n(C)c1=O,1.4,-0.05
CCCSC1=C(C#N)C(c2ccccc2OCC)CC(=O)N1 (stereo unspecified),0.33,0.4

New compounds follow
smiles,KCNQ2 enhance,KCNQ2 enhance baseline
COc1ccc(C(C)=O)cc1COC(=O)c1cc(=O)c2ccccc2o1,0.37,-0.11
Cn1c(Nc2ccccc2)cc(=O)n(C)c1=O,0.03,1.2
Cc1ccc(NC(=O)COc2cccc3ccc(C)nc23)c(Br)c1,1.1,-0.49
C=CCOc1ccc(/C=N/NC(=O)C2CCCC2)cc1OCC,1.6,-0.28
COc1ccc(N2CCN(C(=O)c3csc4ccccc34)CC2)cc1,0.04,-1.4
Cc1c(NC(=O)C(C)OC(=O)c2c3c(nc4ccccc24)CCC(C)C3)c(=O)n(-c2ccccc2)n1C (stereo unspecified),0.23,0.47
O=C(Nc1ccc(Cn2nnc3ccccc32)cc1)c1ccco1,0.33,0.07
CC(=O)Nc1ccc(-c2nnn(CC(=O)Nc3ccc4c(c3)OCO4)n2)cc1Cl,0.08,0.78

(listing goes on)
smiles,KCNQ2 enhance,KCNQ2 enhance baseline
CC(C)C(NC(=O)c1ccco1)C(=O)NCC(c1ccco1)N(C)C (stereo unspecified),0.05,-1.3
CCOC(=O)/C(=N\Nc1cccc(C(F)(F)F)c1)N1CCOCC1,1,0.02
COc1cccc(/C=C2\SC(=S)N(c3cccnc3)C2=O)c1OC,0.1,0.89
NC(=O)CSc1nnnn1CC(CC(=O)O)c1ccccc1 (stereo unspecified),0.49,0.1
OCCSc1c(F)c(SCCO)c(SCCO)c(F)c1SCCO,1.9,-1.2
CN(C)S(=O)(=O)c1cccc(NC(=O)NCCCl)c1,1.5,0.95
Cc1nc(-c2ccc(NC(=O)c3ccccc3Br)cc2)cs1,0.12,-0.03
COC(=O)[C@@H](NC(=O)c1ccc2c(c1)S(=O)(=O)c1ccccc1C2=O)C(C)C,0.09,0.7

(list continues)
smiles,KCNQ2 enhance,KCNQ2 enhance baseline
COC(=O)c1ccc(CN2CCN(C(C)C)C(CCO)C2)cc1 (stereo unspecified),0.03,0.76
CC1CC(C)CN(CCCNC(=O)C2CCCN(c3nnc(N4CCCC4=O)s3)C2)C1 (stereo unspecified),1.3,-1.5
CC(=O)NCCc1c[nH]c2ccc(OCc3ccccc3)cc12,0.66,1.2
COC(=O)c1ccccc1NC(=O)CSc1nnc(-c2ccc(OC)cc2)n1C,0.6,0
N#CCCn1cc(C=O)c(-c2cccs2)n1,1.5,0.46
O=c1c2cc(Br)ccc2[nH]c(=S)n1Cc1ccccc1,0.06,-2.1
Cc1nn(-c2ccccc2)c(Cl)c1/C=N/NC(=O)c1ccc(NS(=O)(=O)c2cccs2)cc1,0.55,0.54
O=C(CN1CCN(c2ccc([N+](=O)[O-])cc2Cl)CC1)N1CCOCC1,0.02,-1.9

Continuation:
smiles,KCNQ2 enhance,KCNQ2 enhance baseline
COc1ccc(/C=N/NC(=O)c2ccncc2)cc1CN1CCOCC1,0.74,-0.87
CN1CCN(c2nc3c(c(=O)n(C)c(=O)n3C)n2Cc2cccc3ccccc23)CC1,0.75,0.03
Cc1ccccc1CSc1nnc(-c2cnccn2)n1C,0.2,-0.03
COc1cccc(NC(=S)NNC(=O)Cn2nc(C(F)F)cc2C(F)F)c1,0.7,0.08
O=C(O)c1ccc(Cl)c(S(=O)(=O)NCc2cccnc2)c1,0.01,0.82
O=C(CC1C(=O)CCCC1=O)c1ccccc1,0.66,-1.7

From PubChem

An excerpt (hit frequency here may not be typical).
